EPAC2 agonist: agonists of human EPAC2 (RAPGEF4); EPAC2 activation, biochemical qHTS; response scale: 100% = 6.5 mM cAMP response; AID 720711; 360,000 tested, 0.079% active; Potency, µM (highest dose often 154 µM), without a hit: top-dose activation, usual class: activators; Q8WZA2; also: potency is read from the fitted curve at half-maximal effect; nearly all actives have a fitted effect of over 50% in size
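Compounds were added across a concentration range to EPAC2 (100 nM), RAP1B-BODIPY-GDP (250 nM) and GDP (50 uM). After 5 min at room temperature, fluorescence was recorded at 5-min intervals for 30 min.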
HepG2 tox: counter-screen for TGF-b inhibitors: cytotoxicity in HepG2 cells | HepG2 CAGA-GFP viability, ATP luminescence, 18 h | Potency, µM (titrated, usually from 46.1 µM), inactives show at the top dose activity change, negative = cytotoxicity, usual class: cytotoxic | 410,000 tested, 0.76% active | AID 588856; also: potency is read from the fitted curve at half-maximal effect; some results filed as inactive show a strong effect at the top dose
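HepG2 CAGA-GFP cells (1000/well, DMEM with 1% FBS) received compound, then TGF-beta at 500 pg/mL final, and were incubated 18 hours at 37 degrees C. Viability was read by CellTiter-Glo luminescence. Media-only wells were set as complete cell-killing and DMSO as no toxicity.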
TGFb inhibitor: inhibitors of TGF-b signaling. HepG2 CAGA-GFP TGF-b/SMAD3 reporter, GFP fluorescence, 18 h; TGF-beta stimulated, 500 pg/mL final. 410,000 tested, 1.2% active. Potency, µM (doses to about 46.1 µM), inactives show top-dose activity, negative = inhibition, usual class: inhibitors; also: potency is read from the fitted curve at half-maximal effect; % is scaled to controls: 0 for no effect and ±100 for the full control effect; nearly all actives have a fitted effect of over 65% in size
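Smad-responsive CAGA-GFP expression was quantified in HEPG2 cells exposed to compounds and 500 pg/mL final TGF-beta for 18 h at 37 degrees C; unstimulated wells defined full inhibition.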
IL-2 act: activates IL-2 in a cell-based reporter assay; 360,000 tested, 0.065% active; activation, % (series mostly up to about 46 µM); IL-2 activation reporter assay, cell-based qHTS; stimulated with anti-CD3/CD4/CD28 beads; in transgenic mouse T cells; in the data active = activation above about 50%; inconclusive = mostly about 30% to 49%; also: 0% is about no effect
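Unstimulated transgenic mouse T cells preincubated 60 min with compound, then stimulated with anti-CD3/anti-CD4-coated beads plus anti-CD28 for 18 h at 37 degrees C. IL-2 response read as EGFP and DsRed fluorescence by plate cytometry.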
A549 tox: kills or reduces viability of A549 cells in Nrf2 counter-screen. A549 ARE-Fluc cells, CellTiter-Fluor viability, 18-24 h. Potency, µM (doses to about 46 µM), for the others: top-dose activity change, negative = cytotoxicity, hits mostly inhibitors. 390,000 tested, 0.16% active. AID 504648; also: potency is read from the fitted curve at half-maximal effect; % is scaled to controls: 0 for no effect and ±100 for the full control effect
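Cytotoxicity counterscreen: CellTiter-Fluor fluorescence was measured in A549 ARE_Fluc cells after 18-24 h of compound exposure in a concentration series. The subsequent BugLite luminescent read reports ARE-luciferase activity.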
The depositor's hits bear a star; ? = inconclusive; & = joins results of further samples; ! = not active in a repeat; [ ] = another dose, or the depositor's remark. Unless noted, calls follow the shape of the dose curve; as a rule, active = well fitted curve in the direction sought with a large enough effect; inconclusive = small, poorly fitted or top-dose-only effect, or another doubt; inactive = no such curve, though single readings can be large; an effect the other way counts as inactive or inconclusive. The list is partial; count on the stated rates, not on these rows.

compound	TGFb inhibitor	EPAC2 agonist	IL-2 act	A549 tox	HepG2 tox
CN=C(C[N+](=O)[O-])NCCSCc1ccc(CN(C)C)o1	6.7%	1.2%	0.4	-4.8%	2.4%
Nc1ccc(OCCc2ccccc2)cc1	8.7%	2.0%	-2.4	0.2%	-7.8%
COC(=O)C1=C(C)NC(C)=C(C(=O)OCCN(C)Cc2ccccc2)C1c1cccc([N+](=O)[O-])c1 (stereo not drawn)	-24.8%	11.0%	-0.3	-0.9%	-52.4%
CCCCOc1cc(C(=O)NCCN(CC)CC)c2ccccc2n1	70.8%&27.5%[activator]	-4.2%&-0.1%	-0.3&-0.7	-6.3%&-2.3%	-20.5%&-55.1%
CN/C(=C/[N+](=O)[O-])NCCSCc1ccc(CN(C)C)o1	22.7%	-1.2%	0.9	4.3%	0.6%
O=C(Nc1ccc([N+](=O)[O-])cc1Cl)c1cc(Cl)ccc1O	-17.2%	6.8%	-0.7	-9.8%	-41.0%
CC(CN(C)C)CN1c2ccccc2CCc2ccccc21 (stereo not drawn)	18.8%	2.3%	0.5	-10.0%	2.8%
CCN1CC2=C(OC(N)=C(C#N)C2c2cccs2)/C(=C\c2cccs2)C1 (stereo not drawn)	?	6.8%	0.5	-2.7%	-33.4%
COC1=CC(=O)C[C@@H](C)[C@]12Oc1c(Cl)c(OC)cc(OC)c1C2=O	14.6%	-2.5%	0.9	-7.0%	-4.5%
OCCN1CCN(CC/C=C2/c3ccccc3Sc3ccc(C(F)(F)F)cc32)CC1	?	7.0%	0.0	-16.5%	7.08µM*
CCCC(=O)Nc1ccc(OCC(O)CNC(C)C)c(C(C)=O)c1 (stereo not drawn)	0.1%	8.9%	-0.2	-3.4%	-5.4%
CC(C)NCC(O)COc1cccc2ccccc12 (stereo not drawn)	-4.3%	3.6%	-0.5	-0.1%	3.0%
N=C(N)c1ccc(OCCCCCOc2ccc(C(=N)N)cc2)cc1	-14.1%	6.6%	1.0	-13.7%	-1.6%
CC[C@H]1OC(=O)[C@H](C)[C@@H](O[C@H]2C[C@@](C)(OC)[C@@H](O)[C@H](C)O2)[C@H](C)[C@@H](O[C@@H]2O[C@H](C)C[C@H](N(C)C)[C@H]2O)[C@](C)(OC)C[C@@H](C)C(=O)[C@H](C)[C@@H](O)[C@]1(C)O	-0.7%	-5.4%	1.6	13.2%	5.2%
NC(=O)CN1C(=O)C(O)(CC(=O)/C=C\c2ccc3c(c2)OCO3)c2ccccc21 (stereo not drawn)	4.5%	4.8%	-0.4	-7.4%	1.7%
CCN(CC)CCOc1ccc(/C(=C(/Cl)c2ccccc2)c2ccccc2)cc1	?	6.6%&14.6%	-0.8&-0.5	?	10µM*!
OCc1cc(C(O)CNCCCCCCOCCCCc2ccccc2)ccc1O (stereo not drawn)	?	20.5%	-0.7	-14.7%	-75.2%
CCCCc1cc2ccccc2c(OCCN(C)C)n1	-4.0%	1.2%	-0.5	1.9%	-63.7%

Quoted at random: four compounds from above
compound	TGFb inhibitor	EPAC2 agonist	IL-2 act	A549 tox	HepG2 tox
N=C(N)c1ccc(OCCCCCOc2ccc(C(=N)N)cc2)cc1	-14.1%	6.6%	1.0	-13.7%	-1.6%
Nc1ccc(OCCc2ccccc2)cc1	8.7%	2.0%	-2.4	0.2%	-7.8%
CC[C@H]1OC(=O)[C@H](C)[C@@H](O[C@H]2C[C@@](C)(OC)[C@@H](O)[C@H](C)O2)[C@H](C)[C@@H](O[C@@H]2O[C@H](C)C[C@H](N(C)C)[C@H]2O)[C@](C)(OC)C[C@@H](C)C(=O)[C@H](C)[C@@H](O)[C@]1(C)O	-0.7%	-5.4%	1.6	13.2%	5.2%
CCCCOc1cc(C(=O)NCCN(CC)CC)c2ccccc2n1	70.8%&27.5%[activator]	-4.2%&-0.1%	-0.3&-0.7	-6.3%&-2.3%	-20.5%&-55.1%

Complete entries from above. Screens in order: TGFb inhibitor | EPAC2 agonist | IL-2 act | A549 tox | HepG2 tox
Entry for CCCC(=O)Nc1ccc(OCC(O)CNC(C)C)c(C(C)=O)c1 (stereo not drawn) = 0.1% | 8.9% | -0.2 | -3.4% | -5.4%
Entry for CCN1CC2=C(OC(N)=C(C#N)C2c2cccs2)/C(=C\c2cccs2)C1 (stereo not drawn) = ? | 6.8% | 0.5 | -2.7% | -33.4%
Entry for CCN(CC)CCOc1ccc(/C(=C(/Cl)c2ccccc2)c2ccccc2)cc1 = ? | 6.6%&14.6% | -0.8&-0.5 | ? | 10µM*!
Entry for CC(CN(C)C)CN1c2ccccc2CCc2ccccc21 (stereo not drawn) = 18.8% | 2.3% | 0.5 | -10.0% | 2.8%
Entry for OCCN1CCN(CC/C=C2/c3ccccc3Sc3ccc(C(F)(F)F)cc32)CC1 = ? | 7.0% | 0.0 | -16.5% | 7.08µM*

Compound activity as filed in PubChem.
